DUX4 inh: blocks DUX4-driven transcriptional activation | 293T-iDUX4 ZSCAN4-Gaussia luciferase reporter, 24 h; active compounds read low | 37,000 tested, 0.8% active | activity change, negative = inhibition, % (test concentration not listed);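 active means -10% or lower and over 25 points stronger than a control reporter; inconclusive means -10% or lower with a smaller gap; inactive means above -10%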;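 further: 0% = median of neutral control wells and -100% = median of positive control wells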
DUX4 inh difference: recorded beside DUX4 inh, whose call it bears; Gaussia minus Italica difference, %; measured here: selective DUX4 reporter inhibition;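 worked out from the two reporters; negative = selective loss of the DUX4 reporter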
DUX4 inh control: further read-out of DUX4 inh, marked with its call; activity change, negative = inhibition, %; measured here: Italica tet-on control reporter;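 0 = neutral control and -100 = positive control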
Numbers without * were called inactive; u = inconclusive; x = no result given. The list is partial; rates above refer to the full screens.

Fields: DUX4 inh, DUX4 inh difference, DUX4 inh control
CO[C@H]1CN(C)C(=O)c2cc(NC(=O)c3ccccc3F)ccc2OC[C@H](C)N(CC2CCOCC2)C[C@H]1C
  -5, 1, -6.1
C[C@H](CO)N1C[C@H](C)[C@@H](CN(C)S(=O)(=O)c2ccc(Cl)cc2)OCCCC[C@H](C)Oc2ccc(NC(=O)Nc3ccc(C(F)(F)F)cc3)cc2C1=O
  -4, 2, -5.6
CCS(=O)(=O)Nc1ccc2c(c1)C(=O)N(C)[C@@H]1CC[C@@H](CC(=O)N[C@@H]3CCN(Cc4ccccc4)C3)O[C@@H]1CO2
  -1, -2, 1.9
CC(C)C(=O)Nc1ccc2c(c1)C(=O)N(C)[C@H]1CC[C@H](CC(=O)NC3CCCC3)O[C@H]1CO2
  -1, 2, -2.3
CC(=O)N(C)C[C@@H]1[C@@H](c2ccc(-c3ccccc3F)cc2)[C@H](CO)N1C(C)=O
  -4, -2, -2.1
COc1ccccc1CN(C)C[C@H]1OCc2ccccc2-c2c(n(C)c3ccccc23)C(=O)N([C@@H](C)CO)C[C@H]1C
  1, -5, 6.2
Cc1cccc(S(=O)(=O)N[C@@H]2CC[C@H](CCNC(=O)Nc3cc(F)ccc3F)O[C@H]2CO)c1
  7, 7, -0.4
N#C[C@H]1[C@H](c2ccc(-c3cccc(F)c3)cc2)[C@@H](CO)N1c1nc(-c2ccccc2)cs1
  0, 1, -0.6
CO[C@H]1CN(C)C(=O)c2cc(NC(=O)c3ccc4c(c3)OCO4)ccc2OC[C@H](C)NC[C@@H]1C
  -6, -2, -4.3
CCOC(=O)N(C)C[C@H]1OCc2ccccc2-c2ccccc2C(=O)N([C@@H](C)CO)C[C@H]1C
  17, 12, 4.2
CCNC(=O)[C@H]1[C@H](CO)[C@H]2Cn3c(ccc(-c4ccc(F)cc4)c3=O)[C@H]2N1C(=O)Cc1cccnc1
  4, -1, 5.4
CN(C)c1ccc2c(c1)[C@H]1C[C@H](CC(=O)O)O[C@H](CO)[C@H]1O2
  1, -6, 6.8
CN(C)CCCNC(=O)C[C@H]1CC[C@H](NS(=O)(=O)c2ccccc2)[C@H](CO)O1
  2, 4, -2.0
O=C(c1ccccc1F)N1CC[C@@H]2[C@H]1c1cc(-c3ccc(F)cc3)ccc1N[C@@H]2CO
  1, -5, 5.1
COc1cccc(C#Cc2ccc([C@@H]3[C@@H](C#N)N(C(=O)C4CCCCC4)[C@H]3CO)cc2)c1
  -1, -1, -0.8
CCCNC(=O)N[C@H]1C=C[C@@H](CC(=O)N2CCN(C)CC2)O[C@H]1CO
  1, 3, -2.0
CCCN(C)C[C@H]1Oc2cc(C#CC3CCCCC3)ccc2S(=O)(=O)N([C@H](C)CO)C[C@H]1C
  -3, -3, -0.2
C[C@H](O)C#Cc1cnc2c(c1)C(=O)N([C@H](C)CO)C[C@@H](C)[C@H](CN(C)C(=O)CN1CCOCC1)O2
  3, 4, -0.4
O=C([C@@H]1[C@@H](CO)[C@@H]2Cn3c(cccc3=O)[C@H]1N2CCC(F)(F)F)N1CCCCC1
  -7, -14, 6.6
COC(=O)C[C@@H]1CC[C@@H]2[C@H](COC[C@H](O)CN2S(=O)(=O)c2ccccc2C)O1
  8, 9, -0.8
COc1ccc(NC(=O)N2CC(=O)N3[C@H](C2)[C@H](c2ccc(Br)cc2)[C@@H]3CO)cc1
  10, 8, 1.4
O=C(O)C[C@@H]1C[C@H]2c3cc(NC(=O)c4ccc5c(c4)OCO5)ccc3O[C@H]2[C@H](CO)O1
  5, 8, -2.8
C/C=C/c1ccc2c(c1)O[C@H](CN(C)CC1CCOCC1)[C@@H](C)CN([C@@H](C)CO)S2(=O)=O
  -2, -5, 2.8
O=C(C[C@H]1C[C@H]2c3cc(NC(=O)NC4CCCCC4)ccc3O[C@H]2[C@@H](CO)O1)NCc1ccccn1
  4, 2, 1.3
COCCNC(=O)C[C@H]1C[C@@H]2c3cc(NC(=O)Nc4ccc(C(F)(F)F)cc4)ccc3O[C@@H]2[C@H](CO)O1
  5, 8, -2.9
COc1ccc2c3c([nH]c2c1)[C@H](CO)N(C(=O)C1CCOCC1)CC31CN(C(=O)NC(C)C)C1
  6, -3, 9.4
COc1ccc(NC(=O)N(C)C[C@H]2OCCCC[C@H](C)Oc3ccc(NC(=O)c4ccncc4)cc3C(=O)N([C@@H](C)CO)C[C@@H]2C)cc1
  4, -1, 4.7
COc1ccc(C#Cc2ccc3c(c2)[C@H]2[C@H](CCN2C(=O)c2cnccn2)[C@H](CO)N3)cc1
  -5, -2, -2.3
CS(=O)(=O)N1CC(=O)N2[C@H](CO)[C@H](c3ccc(Br)cc3)[C@@H]2C1
  4, -12, 16
CCN1CC(=O)N2[C@H](C1)[C@@H](c1ccc(-c3ccccc3F)cc1)[C@@H]2CO
  4, -9, 13
COc1ccccc1-c1ccc2c(c1)O[C@H](CN(C)Cc1ccc3c(c1)OCO3)[C@@H](C)CN([C@H](C)CO)S2(=O)=O
  -2, -1, -1.3
COc1cccc(NC(=O)C[C@H]2CC[C@@H]3[C@H](COc4ccc(NC(=O)C5CC5)cc4C(=O)N3C)O2)c1
  -4, -2, -1.6
C[C@@H]1CN([C@@H](C)CO)C(=O)Cc2cc(NC(=O)CCCN(C)C)ccc2O[C@H]1CN(C)C
  -2, 0, -1.3
O=C1CN(S(=O)(=O)Cc2ccccc2)C[C@@H]2[C@@H](c3ccc(C#Cc4ccccc4)cc3)[C@@H](CO)N12
  u, x, x
CC[C@H]1C/C=C\C[C@H](CC)NC(=O)[C@H](C)CC(=O)N1
  -7, -6, -1.6
CO[C@@H](CN(C)S(=O)(=O)c1ccc(C)cc1)[C@@H](C)CN(C(=O)Nc1ccccc1F)[C@H](C)CO
  1, 2, -1.4
COc1ccc(C#Cc2ccc([C@@H]3[C@@H](CO)N4CCCCN(C(=O)c5ccncc5)C[C@@H]34)cc2)cc1
  u, x, x
C[C@@H]1CCCCO[C@H](CN(C)C(=O)CCCN(C)C)[C@@H](C)CN([C@@H](C)CO)C(=O)c2cc(N(C)C)ccc2O1
  -2, -2, -0.3
O=C(C[C@H]1C[C@H]2c3cc(NC(=O)Nc4ccc(C(F)(F)F)cc4)ccc3O[C@H]2[C@@H](CO)O1)NCc1cccnc1
  -2, -2, 0.5
CO[C@H]1CN(C)C(=O)c2cc(NS(=O)(=O)c3cccc(F)c3)ccc2OC[C@@H](C)N(Cc2cc(F)ccc2F)C[C@@H]1C
  -4, -7, 2.5
CCc1sc(N2[C@@H](C#N)[C@@H](c3ccccc3-c3cccc(F)c3)[C@@H]2CO)nc1C
  u, x, x
C[C@H](CO)N1C[C@H](C)[C@@H](CN(C)C(=O)[C@@H](Cc2ccccc2)N(C)C)OCc2ccccc2-c2ccccc2C1=O
  3, -3, 6.1
C/C=C/c1cnc2c(c1)C(=O)N([C@@H](C)CO)C[C@H](C)[C@@H](CN(C)C(=O)Nc1cccc(OC)c1)O2
  4, 0, 3.5
C[C@@H]1CN([C@@H](C)CO)C(=O)c2cc(NC(=O)Cn3cnnn3)ccc2O[C@@H]1CN(C)Cc1ccc(C(=O)Nc2ccccc2N)cc1
  4, 1, 3.0
CC(=O)NC[C@H]1[C@H](c2ccc(-c3ccccc3F)cc2)[C@@H](CO)N1C(C)=O
  -2, -5, 3.5

Record cards (already shown).
C/C=C/c1cnc2c(c1)C(=O)N([C@@H](C)CO)C[C@H](C)[C@@H](CN(C)C(=O)Nc1cccc(OC)c1)O2 as listed: DUX4 inh: 4; DUX4 inh difference: 0; DUX4 inh control: 3.5
CC(=O)NC[C@H]1[C@H](c2ccc(-c3ccccc3F)cc2)[C@@H](CO)N1C(C)=O as listed: DUX4 inh: -2; DUX4 inh difference: -5; DUX4 inh control: 3.5

Next part
Fields: DUX4 inh, DUX4 inh difference, DUX4 inh control
O=C(c1ccc2c(c1)OCO2)N1CC(=O)N2[C@@H](CO)[C@@H](c3ccc(C#CC4CCCC4)cc3)[C@@H]2C1
  u, x, x
Cc1cccc(-c2ccc(C3[C@@H]4CN(Cc5ccccc5)C[C@H]3N4)cc2)c1 (stereo not given in full)
  u, x, x
C[C@@H]1CN([C@H](C)CO)C(=O)c2ccccc2-c2ccccc2CO[C@H]1CN(C)S(=O)(=O)c1cccs1
  -3, -5, 1.7
Cc1noc(C)c1NC(=O)N[C@@H]1CC[C@H](CC(=O)NCc2ccc(Cl)c(Cl)c2)O[C@H]1CO
  -9, -5, -3.6
CN1C[C@@H](O)COC[C@H]2O[C@@H](CC(=O)NC3CCCC3)CC[C@@H]21
  1, 2, -1.6
C[C@@H]1CN([C@H](C)CO)C(=O)Cc2cc(NC(=O)Nc3ccc(F)cc3)ccc2O[C@H]1CN(C)Cc1ccc(-c2ccccc2)cc1
  1, 2, -0.9
CC(C)C#Cc1cnc2c(c1)C(=O)N([C@@H](C)CO)C[C@H](C)[C@H](CN(C)C(=O)Nc1ccccc1F)O2
  -2, 0, -2.2
O=C(c1ccccn1)N1CC[C@H]2[C@H](CO)Nc3ccc(Br)cc3[C@H]21
  21, 15, 6.8
CO[C@@H]1CC[C@H]2CCN(C)C(=O)CCCN(C)C(=O)c3cc(C#N)ccc3OC[C@H]1O2
  -2, 1, -2.6
C[C@@H]1CN([C@H](C)CO)S(=O)(=O)c2ccc(C#CCN(C)C)cc2O[C@H]1CN(C)S(C)(=O)=O
  4, -6, 9.6
CCN(C[C@H]1[C@H](c2ccccc2)[C@@H](CO)N1C(=O)COC)S(C)(=O)=O
  -2, 0, -2.5
O=C(CN1CCOCC1)NC[C@@H]1[C@@H](c2ccccc2)[C@@H](CO)N1CC1CC1
  0, -4, 3.5
COc1ccccc1-c1ccc([C@H]2[C@H](CO)N3CCCCN(S(=O)(=O)c4cn(C)cn4)C[C@@H]23)cc1
  10, 24, -14
C[C@H](CO)N1C[C@H](C)[C@H](CN(C)Cc2ccc(C(F)(F)F)cc2)Oc2c(NC(=O)c3nc4ccccc4s3)cccc2C1=O
  1, -3, 4.1
COc1ccc(CN(C)C[C@H]2Oc3ccc(NC(=O)Nc4c(C)noc4C)cc3C(=O)N([C@@H](C)CO)C[C@H]2C)cc1
  0, 0, -0.3

Exported with the structure last: part of the list above
DUX4 inh	DUX4 inh difference	DUX4 inh control	SMILES
1	2	-0.9	C[C@@H]1CN([C@H](C)CO)C(=O)Cc2cc(NC(=O)Nc3ccc(F)cc3)ccc2O[C@H]1CN(C)Cc1ccc(-c2ccccc2)cc1
21	15	6.8	O=C(c1ccccn1)N1CC[C@H]2[C@H](CO)Nc3ccc(Br)cc3[C@H]21
4	-6	9.6	C[C@@H]1CN([C@H](C)CO)S(=O)(=O)c2ccc(C#CCN(C)C)cc2O[C@H]1CN(C)S(C)(=O)=O
0	-4	3.5	O=C(CN1CCOCC1)NC[C@@H]1[C@@H](c2ccccc2)[C@@H](CO)N1CC1CC1

Carrying on.
Fields: DUX4 inh, DUX4 inh difference, DUX4 inh control
O=C1CN(S(=O)(=O)c2ccccc2)C[C@H]2[C@@H](c3ccc(Br)cc3)[C@H](CO)N12
  1, -7, 8.1
CC(C)C[C@@H]1COCn2nncc2CCCC(=O)N1
  0, -3, 2.1
N#C[C@@H]1[C@H](c2ccccc2C2=CCCCC2)[C@H](CO)N1C(=O)Nc1ccccc1F
  u, x, x
Cc1cccc(NC(=O)Nc2ccc3c(c2)C(=O)N(C)[C@H]2CC[C@@H](CC(=O)NCc4ccccc4Cl)O[C@@H]2CO3)c1
  -3, -4, 0.4
CC(=O)N1CC(=O)N2[C@H](CO)[C@@H](c3ccc(-c4ccncc4)cc3)[C@@H]2C1
  6, -8, 14
CCCC(=O)N1CC2(C1)CN(C(=O)c1ccc(F)cc1)[C@H](CO)c1[nH]c3cc(OC)ccc3c12
  1, 9, -8.5
CCCNC(=O)N(C)C[C@H]1Oc2cc(-c3cccnc3)ccc2S(=O)(=O)N([C@H](C)CO)C[C@@H]1C
  0, -1, 0.4
COc1ccccc1C#Cc1ccc2c(c1)[C@H]1[C@H](CCN1C(=O)CN1CCOCC1)[C@H](CO)N2
  -21*, -27*, 6.4*
CN(C)CC(=O)N1CCCCN2[C@@H](CO)[C@@H](c3ccc(-c4ccccc4)cc3)[C@@H]2C1
  16, 16, -0.2
CCC(=O)N1CC2(CCN(C(=O)Nc3c(C)noc3C)CC2)c2c([nH]c3cc(OC)ccc23)[C@H]1CO
  5, -17, 22
CNC(=O)C[C@H]1CC[C@@H]2[C@H](COC[C@H](O)CN2Cc2ccccc2F)O1
  0, 0, 0.1
COc1ccc(-c2cn(CC[C@H]3CC[C@H](NC(=O)c4cnccn4)[C@H](CO)O3)nn2)cc1
  -3, -5, 2.0
O=C(C[C@H]1CC[C@@H]2[C@H](COC[C@H](O)CN2Cc2cc(F)ccc2F)O1)NCc1ccccc1
  -3, 0, -3.4
CCCC(=O)N1C[C@H]2[C@@H](c3ccccc31)[C@@H](CO)N2C(=O)Nc1ccc(F)cc1
  -1, -4, 2.2
COCCNC(=O)[C@@H]1[C@@H](CO)[C@@H]2Cn3c(ccc(C4=CCCCC4)c3=O)[C@H]1N2C(=O)C1CCCC1
  -2, -1, -1.0
COCC#Cc1ccc([C@@H]2[C@H]3CN(C(=O)Nc4ccc(F)cc4)CC(=O)N3[C@H]2CO)cc1
  9, -3, 12

Source: PubChem
